Screening data (PubChem BioAssay)
miR-21 reporter = miR-21 reporter, rising signal. HeLa miR-21 FLuc reporter, luciferase, 48 h. Potency, µM (series often up to 38.3 µM), without a hit: top-dose reporter change, positive = more light. 340,000 tested, under 10 active. AID 2288; active = well fitted rising curve with a large enough effect; inconclusive = small, poorly fitted or top-dose-only effect; inactive = no such curve, though single readings can be large or run the other way;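 note: % of control where 0% means no effect; miR-21 action dims this reporter so a rising signal means less miR-21 action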
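HeLa miR-21-FLuc reporter line, endogenous miR-21; 2000 cells/well in DMEM/10% FBS; compound titration up to ~40uM final, 48 h, 37 degree Celsius; luciferase detection reagent, 15 min lysis, CCD luminescence.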
Rango release inh = inhibition of RanGTP-driven Rango-importin beta dissociation | O95149+P62826 | Biochemical FRET Rango-importin beta, RanGTP-induced dissociation | Potency, µM (highest dose often 46.1 µM), for the others: at the top dose activity change, negative = inhibition | actives 0.071% (n = 340,000) | AID 540253; active means falling FRET ratio curve, often poorly fitted, with flat reads before Ran was added; inconclusive means other falling curves, or compound fluorescence or quenching; inactive means flat or rising ratio curve;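 note: potency is the fitted concentration of half-maximal effect; % of control where 0% means no effect; nearly all actives have a fitted effect of over 45% in size; -100% = wells without RanGTP and RCC1; the record marks most hits as doubtful in a second field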
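Quantitative HTS using a FRET biosensor: 0.1 uM Rango, 0.25 uM importin beta, 0.6 uM Ran, 2 mM GTP, 0.2 uM RCC1 final, PBS with DTT, Tween-20 and BSA. Post-read taken 45 min after Ran addition.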
GLA inh pH 4.5 = blocks human alpha-galactosidase A at pH 4.5. 230,000 tested, under 10 active. P06280. purified enzyme, 4-MU-alpha-Gal fluorescence, pH 4.5. activity change, negative = inhibition, % at 105 µM; inconclusive = small, poorly fitted or top-dose-only inhibition, or a rising curve; inactive = flat fitted curve, though single readings scatter; no compound was filed as active;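 note: 0% = full activity with enzyme and -100% = basal without enzyme; dose as in the result columns while the protocol names 77 µM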
Target sequence (P06280 whole entry, looked up): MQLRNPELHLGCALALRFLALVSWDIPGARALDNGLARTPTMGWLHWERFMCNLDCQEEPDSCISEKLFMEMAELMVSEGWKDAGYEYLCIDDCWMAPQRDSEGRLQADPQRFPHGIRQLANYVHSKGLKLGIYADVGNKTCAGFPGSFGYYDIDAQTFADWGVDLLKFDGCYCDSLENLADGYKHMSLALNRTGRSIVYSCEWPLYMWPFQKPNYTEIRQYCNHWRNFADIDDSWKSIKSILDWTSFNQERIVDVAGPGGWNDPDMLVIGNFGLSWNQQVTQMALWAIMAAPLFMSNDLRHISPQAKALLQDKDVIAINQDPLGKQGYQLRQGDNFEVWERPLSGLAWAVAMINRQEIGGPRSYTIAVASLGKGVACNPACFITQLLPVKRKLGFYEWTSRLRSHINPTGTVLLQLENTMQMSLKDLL
Rango complex inh = inhibitors of Rango-importin beta complex formation. Q14974. Rango CFP/YFP FRET sensor + importin beta, 45 min. Potency, µM (titrated, usually from 92.2 µM), for inactives: top-dose inhibition of complex formation. actives 0.031% (n = 340,000). AID 540263; active = rising FRET ratio curve, often small or poorly fitted; inconclusive = mostly compound fluorescence or quenching in the first reads; inactive = flat curves in all reads;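 note: potency is the fitted concentration of half-maximal effect; 0% = DMSO wells and 100% = buffer wells lacking importin beta; nearly all actives have a fitted effect of over 15% in size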
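FRET biosensor (snurportin 1 IBB flanked by EYFP and cerulean), 50 nM, with compound 5 min, then 0.125 microM importin beta in PBS, 1 mM DTT, 0.02% Tween-20, 0.1% BSA. CFP/YFP ratio read after 45 min at room temperature; pre-read flags interference.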
* hit, by the source's call; ? = inconclusive; / = no result given; & = joins results of further samples.

1	O=C(O)CCCC(=O)Nc1ccc(C(=O)N2CCCCC2)cc1
2	Cc1c(NC(=O)c2ccc3c(c2)OCO3)cccc1-c1nc2ccccc2s1
3	O=C(Nc1ccc(S(=O)(=O)N2CCCC2)cc1)Nc1ccc(F)cc1F
4	Cc1cc(=O)oc2c3c(cc(OCC(=O)NC(C)C)c12)OC(C)(C)CC3
5	CCc1nc2n[nH]c(N)c2c2c1CSC(C)(C)C2
6	Cn1nnc2cc(C(=O)Nc3ccc(Cl)cc3)ccc21
7	C=CCOc1c(/C=N\NC(N)=O)cccc1OC
8	CN(Cc1cccnc1)Cc1cn(Cc2ccccc2)nc1-c1ccc2c(c1)OCO2
Compound | 1 | 2 | 3 | 4 | 5 | 6 | 7 | 8
miR-21 reporter | -4% | -5% | / | -20% | -18% | -38% | 3% | 0%
Rango release inh | 16% | 0% | -11% | 7% | -3% | -9% | 18% | -12%
GLA inh pH 4.5 | 1 | 0 | / | / | 0 | 6 | -8 | -6
Rango complex inh | -6.6% | -2.7% | 3.4% | 1.2% | 0.5% | 1.1% | 2.4% | -1.8%

Reprinted from the part before: four compounds, then new ones.
5	CCc1nc2n[nH]c(N)c2c2c1CSC(C)(C)C2
6	Cn1nnc2cc(C(=O)Nc3ccc(Cl)cc3)ccc21
7	C=CCOc1c(/C=N\NC(N)=O)cccc1OC
8	CN(Cc1cccnc1)Cc1cn(Cc2ccccc2)nc1-c1ccc2c(c1)OCO2
9	O=[N+]([O-])CC1(n2nc3ccccc3n2)CCCCC1
10	Cc1ccc(/C(O)=C2/C(=O)C(=O)N(c3ccccn3)C2c2cccc([N+](=O)[O-])c2)cc1 (stereo not drawn)
11	CC1CCc2c(sc3nc(SCC(=O)NCc4ccco4)nc(N)c23)C1 (stereo not drawn)
12	Cc1c(C(=O)OCc2ccccc2)[nH]c2c1C(=O)CC(c1ccco1)C2 (stereo not drawn)
13	O=C(NC1CCCCC1)C(c1cc2c(cc1[N+](=O)[O-])OCO2)N1CCCCC1 (stereo not drawn)
14	O=C(CCS(=O)(=O)c1ccc(Br)cc1)NCc1cccs1
15	CCCc1cc(=O)[nH]c(SCC(=O)c2c(C)[nH]c3ccccc23)n1
16	COCCNC(=S)N1CCN(C)CC1
Compound | 5 | 6 | 7 | 8 | 9 | 10 | 11 | 12 | 13 | 14 | 15 | 16
miR-21 reporter | -18% | -38% | 3% | 0% | / | -7% | -16% | 19% | -24% | -6% | -14% | 0%
Rango release inh | -3% | -9% | 18% | -12% | -13% | 1% | 11% | -15% | / | -3% | 6% | 23%
GLA inh pH 4.5 | 0 | 6 | -8 | -6 | / | / | 5 | 5 | 5 | -15 | -8 | 6
Rango complex inh | 0.5% | 1.1% | 2.4% | -1.8% | -1.4% | -5.9% | 0.0% | -6.0% | / | -1.5% | -1.9% | 3.6%

Single records (already shown). Order of values: miR-21 reporter, Rango release inh, GLA inh pH 4.5, Rango complex inh
O=C(CCS(=O)(=O)c1ccc(Br)cc1)NCc1cccs1 reads -6%, -3%, -15, -1.5%
CC1CCc2c(sc3nc(SCC(=O)NCc4ccco4)nc(N)c23)C1 (stereo not drawn) reads -16%, 11%, 5, 0.0%
COCCNC(=S)N1CCN(C)CC1 reads 0%, 23%, 6, 3.6%
Cc1ccc(/C(O)=C2/C(=O)C(=O)N(c3ccccn3)C2c2cccc([N+](=O)[O-])c2)cc1 (stereo not drawn) reads -7%, 1%, /, -5.9%
O=[N+]([O-])CC1(n2nc3ccccc3n2)CCCCC1 reads /, -13%, /, -1.4%

The list continues:
17	O=C(COC(=O)c1cccc(S(=O)(=O)N2CCCC2)c1)NCc1ccccc1
18	O=C(COc1ccc(Cl)cc1)Nc1ccc(CN2CCOCC2)cc1
19	Cc1ccc(S(=O)(=O)N(CC(O)CN2C(=O)NC(C)(C)C2=O)c2cccc([N+](=O)[O-])c2)cc1 (stereo not drawn)
20	COc1ccc(NC(=O)N2CCCC2C(=O)Nc2ccccc2F)cc1 (stereo not drawn)
21	Cn1cccc1/C=C(\C#N)c1ccccc1
22	CCOc1ccc(N2C(=O)CC(N(Cc3ccco3)C(C)=O)C2=O)cc1 (stereo not drawn)
23	CCc1cc(=O)oc2cc3occ(C)c3cc12
24	CC(C)Cc1nc2sc3c(NCc4ccco4)ncnc3c2c2c1COC(C)(C)C2
Compound | 17 | 18 | 19 | 20 | 21 | 22 | 23 | 24
miR-21 reporter | -3% | / | 10% | 5% | -5% | 0% | -2% | -11%
Rango release inh | 1% | -14% | 2% | 17% | -8% | 8% | 13% | -8%
GLA inh pH 4.5 | -3 | / | / | / | -3 | -1 | 8 | -2
Rango complex inh | 0.3% | -0.2% | 3.1% | -2.0% | 3.8% | -2.7% | -5.8% | -0.5%

25	CCOc1cc(NC(=O)Nc2ccccc2)c(OCC)cc1NC(=O)CC
26	O=C(COC(=O)c1ccc(NS(=O)(=O)c2cccs2)cc1O)NC1CCCCC1
27	Cn1c(=O)c2[nH]c(NN=Cc3ccc(Br)cc3)nc2n(C)c1=O
28	COc1ccc(C(=O)Cn2nnc(-c3ccccc3NC(=O)C3CC3)n2)cc1
29	CCCN(CC(=O)Nc1ccccc1C)C(=O)Cc1c(C)nc2ccccc2c1C
30	CCOc1ccccc1NC(=O)c1ccccc1N(C)S(C)(=O)=O
31	COc1ccc(C(=O)NC(=S)NCc2ccco2)cc1Br
32	COc1cccc(CN(C)C(=O)CNC(=O)c2sc3ccccc3c2Cl)c1OC
Compound | 25 | 26 | 27 | 28 | 29 | 30 | 31 | 32
miR-21 reporter | -5% | -3% | / | -3% | / | -1% | -6% | /
Rango release inh | ? | 27% | 17% | 10% | -9% | ? | 1% | 12%
GLA inh pH 4.5 | / | 3 | / | -2 | / | -2 | / | /
Rango complex inh | ? | ? | -2.7% | -0.5% | -0.6% | -1.9% | -1.1% | -0.1%

33	CC(=Nc1ccccc1O)c1sc2ccccc2c1O
34	CCC(C)c1ccc(OCCCCN2CCOCC2)cc1 (stereo not drawn)
35	COc1cc(NC(=O)c2ccccc2)c(OC)cc1NC(C)=O
36	OC(COc1ccc2c(c1)CCC2)Cn1cnc2ccccc21 (stereo not drawn)
37	C[C@H](CO)N1C[C@H](C)[C@@H](CN(C)Cc2ccncc2)Oc2ccc(NC(=O)Cn3cnnn3)cc2C1=O
38	COc1cc(Cl)c(C)cc1NC(=O)c1ccc2c(SCC(=O)O)c3c(nc2c1)CCCC3
39	CCOC(=O)c1[nH]cnc1C(=O)Nc1ccccn1
40	Cc1cc(C)cc(NC(=O)C(=O)NCC2CCCN2S(=O)(=O)c2cccs2)c1 (stereo not drawn)
Compound | 33 | 34 | 35 | 36 | 37 | 38 | 39 | 40
miR-21 reporter | -23% | -8% | 0% | -9% | / | -5%&-4% | 8% | /
Rango release inh | ? | 3% | 4% | 12% | 40% | 3% | -2% | 9%
GLA inh pH 4.5 | -7 | 2 | 5 | -10 | / | -5 | 7 | /
Rango complex inh | ? | 8.2% | -2.4% | 3.9% | 1.4% | -0.7% | -5.8% | ?

41	Cc1cc(C(=O)CSc2ccccc2)cc(C)c1O
42	Cc1cccc(NC(=O)c2c(C)nn(-c3ccccc3)c2Cl)c1
43	COc1ccccc1NS(=O)(=O)c1cccc(NC(=O)NC2CCCCC2)c1
44	CS(=O)(=O)c1nc(S(=O)(=O)c2ccc(Cl)cc2)c(NCCCn2ccnc2)s1
45	Cc1c(OCC(=O)NCc2cccnc2)ccc2c3c(c(=O)oc12)CCCC3
46	O=C(CN1CCN(S(=O)(=O)c2ccc(Cl)s2)CC1)N1CCCCC1
47	Cc1cc(NC(=O)Cn2c(=O)oc3ccc(Cl)cc32)no1
48	S=C(Nc1ccc2nc(-c3ccccn3)c(-c3ccccn3)nc2c1)N1CCCCCC1
Compound | 41 | 42 | 43 | 44 | 45 | 46 | 47 | 48
miR-21 reporter | -71% | -43% | -2% | 3% | 5% | / | 5% | -19%
Rango release inh | -15% | -6% | -5% | 7% | 24% | 1% | 0% | ?
GLA inh pH 4.5 | / | 3 | -2 | / | / | / | / | -11
Rango complex inh | -0.7% | 0.9% | -2.0% | -0.2% | 2.2% | -1.0% | 0.6% | ?

49	O=C(CSc1nnnn1-c1cccc(Cl)c1)Nc1ccc2c(c1)CCC2
50	Cn1c(=O)c2c(nc(SCc3cccnc3)n2Cc2ccccc2)n(C)c1=O
51	CCOC(=O)Cn1c(COc2ccccc2OC)[n+](C)c2ccccc21
52	CN(C)c1nc(N(C)C)nc(N(C#N)CN2C(=O)c3ccccc3C2=O)n1
53	Cc1cc(C(=O)NC(=S)Nc2ccccc2N2CCCC2)ccc1[N+](=O)[O-]
54	COc1ccc(S(=O)(=O)N2CCOC2CNC(=O)C(=O)NCCc2ccccc2)cc1 (stereo not drawn)
55	Cc1nc2c(C)cccn2c1/C(O)=C1\C(=O)C(=O)N(CCN(C)C)C1c1cccs1 (stereo not drawn)
56	COc1ccccc1N(Cc1ccccc1)S(=O)(=O)c1cccc(C(=O)Nc2ncccc2C)c1
Compound | 49 | 50 | 51 | 52 | 53 | 54 | 55 | 56
miR-21 reporter | -2% | -11% | / | -5% | -5% | 12% | / | /
Rango release inh | / | 6% | -15% | / | -7% | 5% | 1% | -5%
GLA inh pH 4.5 | 4 | -12 | / | -4 | 0 | / | / | /
Rango complex inh | / | 2.7% | 5.8% | / | -3.4% | -0.1% | -0.3% | 0.0%

57	COC(=O)c1ccccc1NC(=O)COc1ccccc1[N+](=O)[O-]
58	O=C1CC(c2cccc(Cl)c2)C(n2cncn2)C(=O)C1C1NCCc2ccccc21 (stereo not drawn)
59	CN(Cc1cccs1)C(=O)CCCc1c[nH]c2ccccc12
60	CC(=O)NCCn1c(SCC(=O)c2ccccc2)nc2ccccc2c1=O
61	O=C(Oc1cccc2ccccc12)c1ccccc1
62	CSc1ccccc1NC(=O)CN(C)CC(=O)Nc1ccccc1N1CCOCC1
63	O=[N+]([O-])c1ccc(N/N=C/c2cccc(O)c2O)cc1
64	O=C(Nc1cccnc1)/C(N=Nc1c(Cl)cccc1Cl)=C(\O)c1ccccc1
Compound | 57 | 58 | 59 | 60 | 61 | 62 | 63 | 64
miR-21 reporter | -22% | -1% | -50% | -1% | / | 1% | -71% | -4%
Rango release inh | 0% | -8% | 0% | 0% | -3% | 13% | ? | 3%
GLA inh pH 4.5 | -6 | 0 | 3 | 10 | / | -1 | / | -15
Rango complex inh | 1.4% | 0.6% | -3.4% | 4.1% | ? | 0.9% | ? | 9.4%

65	CCc1nnc(NC(=O)Cc2ccc(OC)c(OC)c2)s1
66	CCn1nc(C)c(/C=N/NC(=O)c2c[nH]c3ccccc23)c1C
67	CC(C)NC(=O)C(=O)NCCCOC(C)C
68	CSc1cnn(-c2ccccc2)c(=O)c1SC
69	N#C/C(=C/c1ccc(F)cc1)C(N)=S
70	O=C(NC(=S)NCc1ccccc1)c1ccccc1F
71	COc1ccc(S(=O)(=O)NCc2cc(-c3ccccc3Cl)no2)cc1
72	CCOc1ccc(-n2ccnc2SCC(=O)N2CCCc3ccccc32)cc1
Compound | 65 | 66 | 67 | 68 | 69 | 70 | 71 | 72
miR-21 reporter | -1% | -61% | -5% | -13% | -7% | -15% | 4% | -5%
Rango release inh | -15% | 7% | -2% | -7% | 3% | -11% | 2% | 17%
GLA inh pH 4.5 | 8 | 4 | -6 | -4 | -6 | 2 | 2 | -8
Rango complex inh | 1.8% | 1.5% | 0.0% | 6.7% | 1.6% | -2.7% | 1.0% | 4.9%

Only part of the results is shown, so the mix of outcomes need not match the whole.
